LT uptake inh – inhibitors of anthrax lethal toxin internalization. Cells, anthrax lethal toxin internalization, FRET ratio (460/530). Potency, µM (doses to about 40 µM), for inactives: top-dose activity change, negative = inhibition, most hits filed as inhibitors. AID 912. actives 0.67% (n = 70,000); active = well fitted falling ratio curve with the 530 nm signal flat; inconclusive = other ratio curves, or a change in one channel alone; inactive = flat curves in the ratio and both channels; the % refers to the ratio; note: % is set by controls: 0 for no effect and ±100 for the full control effect; nearly all actives have a fitted effect of over 50% in size; tested in ME-180 cells; beta-lactamase reporter
SmPrx2 inh – inhibitors of Schistosoma mansoni peroxiredoxin 2; S. mansoni Prx2 activity coupled to TGR/GSH (TGR is thioredoxin glutathione reductase), NADPH fluorescence loss, qHTS; some inactives read as strong as hits; Potency, µM; actives 0.07% (n = 65,000); AID 448; active means full or partial inhibition curve with a strong effect at the top dose; inconclusive means weaker partial or single-point curve; inactive means no accepted curve; note: series up to 57 µM; many of its hits are not listed in these tables
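Enzyme mix: 100 uM NADPH, 25 nM TGR, 700 uM GSH, 50 nM Prx2 in 100 mM phosphate pH 7.4, 10 mM EDTA, 0.01% Tween-20. 15 min RT with compound; NADPH/GSH added, H2O2 starts reaction; NADPH fluorescence read 8 min.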
An asterisk follows results filed as active; ? = inconclusive; . = no result given; & = joins results of further samples; [ ] = another dose, or the depositor's remark. Potency is the fitted concentration of half-maximal effect. Not all compounds are listed. The share of hits here may be higher or lower than overall.

Order of results – LT uptake inh | SmPrx2 inh
- Cc1cccc(-n2nnc(C(=O)NCc3ccc4c(c3)OCO4)c2N)c1
 : -2% | >57
- O=C(CCN1CCN(c2ccc(Cl)cc2)CC1)Nc1ccccc1F
 : . | >57
- C[C@]12CC[C@H](O)CC1=CC[C@@H]1[C@H]2CC[C@]2(C)C(=O)CC[C@H]12
 : 2% | >57
- CS(=O)(=O)N1CCC(C(=O)Nc2ccc(Cl)c(C(F)(F)F)c2)CC1
 : -13% | >57
- CC(=O)c1ccc(N2CCN(C(=O)c3cc(C)on3)CC2)cc1
 : 11% | >57
- Cc1ccc(NS(=O)(=O)c2cccc(C(=O)O)c2)c(C)c1
 : -2% | >57
- CCn1cc(C(=O)OCC(=O)OC2CC(C)CCC2C(C)C)c(=O)c2ccc(C)nc21 (configuration not stated)
 : ? | >57
- CC(C)(C)NC[C@H](O)COc1cccc2c1CCCC2=O
 : 0%&-3%[3.58 µM] | >57&>57
- COC(=O)[C@@]1(Cc2ccc(OC)cc2)[C@H]2c3cc(C(=O)N4CCCC4)n(CCc4c[nH]c5ccc(O)cc45)c3C[C@H]2CN1C(=O)c1ccccc1
 : ? | >57
- COc1ccccc1-c1ccc2ncnc(NCc3ccccc3)c2c1
 : ? | >57
- O=C(O)C(Cc1cccs1)C(=O)O
 : 1%[8 µM] | >57
- COc1ccc(Br)cc1CN1CCN(CCO)CC1
 : ? | >57
- CC(C)(C#CCN1CCCC1)OCCC#N
 : -13% | .
- Cc1c(C(=O)N2CCCC2)oc2c1-c1[nH]ncc1CC2
 : 6% | >57
- C/C(=N/NS(=O)(=O)c1ccc(C)cc1)P(=O)(O)O
 : ? | >57
- COc1ccc(CN2C(=O)CC(=O)NC2=O)cc1
 : -14% | >57
- O=C(NCCc1ccccc1)C1CCN(S(=O)(=O)c2cccnc2)CC1
 : 5% | >57
- Nc1ccncc1
 : ? | >57&>57
- CCC(=O)N1CCc2cc(S(=O)(=O)NCCC(=O)Nc3ccccc3C)ccc21
 : -9% | >57
- COCC(=O)NC1CCN(C(=O)NCc2ccccc2)CC1
 : -2% | >57

The list goes on.
Order of results – LT uptake inh | SmPrx2 inh
- CCCc1ncc(C(O)c2ccc(OC)cc2)n1C (configuration not stated)
 : -5% | >57
- O=C(CSc1nc2c([nH]c3ccccc32)c(=O)n1-c1cccc(Cl)c1)N1CCOCC1
 : ? | >57
- CN(C)S(=O)(=O)c1ccc(C(=O)N2CCCC2c2nc3ccccc3s2)cc1 (configuration not stated)
 : -11% | >57
- O=C(NC1CCCCC1)c1ccc(S(=O)(=O)NCc2ccco2)cc1
 : -4% | >57
- Cc1cccc2[nH]c(-c3ccc(NC(=O)c4ccco4)cc3)nc12
 : ? | >57
- O=C(Nc1ccc(F)cc1Cl)c1ccc2c(=O)n3c(nc2c1)CCCCC3
 : 11% | >57
- Cn1c(=O)n(-c2cccc(Cl)c2)c(=O)n1C
 : 5% | >57
- Cc1noc(/C=C/c2ccco2)c1S(=O)(=O)N1CCC(C(=O)N2CCc3ccccc3C2)CC1
 : ? | >57
- C=CCOc1cccc(C2/C(=C(/O)c3ccc(Cl)cc3)C(=O)C(=O)N2CCN2CCOCC2)c1 (configuration not stated)
 : 4% | >57
- COc1ccc2cc3c(N)c(C(=O)NCc4ccco4)sc3nc2c1
 : 2% | >57
- COc1cc(NC(=O)CS(=O)(=O)c2ccc(C)cc2)cc(OC)c1OC
 : -5% | >57
- CCN1CCN(Cc2ccc(NC(=O)Nc3ccc(OC)cc3)cc2)CC1
 : -11% | >57
- Cc1ccc(SCCNC(=O)CN2C(=O)c3ccccc3S2(=O)=O)cc1
 : 4% | >57
- Cc1nc2cc(C(=O)NCCN3CCOCC3)ccc2n1-c1ccc(F)cc1F
 : -5% | >57
- CCCC(=O)NC(C)C(c1cccs1)N1CCN(C)CC1 (configuration not stated)
 : -8% | >57
- O=C(NCCN1CCOCC1)c1cn(CCc2ccccc2)nn1
 : -16% | >57
- c1ccc(-c2ccc(OCCOCCn3cncn3)cc2)cc1
 : 26% | >57
- CCOC(=O)c1cccc(NC(=O)c2cnc3ccccc3n2)c1
 : -9% | >57
- O=C(O)c1ccc2[nH]c3c(c2c1)CSCC3
 : 3% | >57
- COc1cccc(-c2nn(C)c3sc(C(=O)NCc4ccc(C)o4)cc23)c1
 : ? | >57

(further entries)
Order of results – LT uptake inh | SmPrx2 inh
- Cc1nonc1NC(=O)CSc1nnc(-c2ccoc2C)n1CC(C)C
 : ? | >57
- O=C1CN=C(Nc2cccc(C(F)(F)F)c2)N1C1CCCC1
 : -5% | >57
- O=C(NCc1nnc(SCC(=O)N2CCCC2)o1)c1c(F)cccc1Cl
 : 8% | >57
- O=C1CCCC/C1=C\Nc1ccccc1C(=O)O
 : -6% | .
- CC1(C)[C@@H]2CC[C@]1(C)CN(CCC[N+](C)(C)C)C2
 : 10%[8 µM] | >57
- O=S(=O)(c1ccc2c(c1)OCCO2)N1CCN(c2nc3ccccc3s2)CC1
 : -7% | >57
- CCn1c(SCC(=O)Nc2cc(NC(C)=O)ccc2OC)nnc1-c1ccncc1
 : ? | >57
- NC1=NCCCC1
 : -12% | >57
- CC12CCC(c3c(C(=O)O)nn(-c4ccccc4)c31)C2(C)C (configuration not stated)
 : 4% | >57
- COc1cccc(Nc2nnc(SCC(=O)N3CCOCC3)s2)c1
 : 1% | >57
- CC[C@H]1CN2CCc3cc(OC)c(OC)cc3[C@H]2C[C@@H]1C[C@H]1NCCc2c1[nH]c1ccc(O)cc21
 : ? | >57
- COCCOC(=O)c1c(N)n(Cc2ccccc2)c2nc3ccccc3nc12
 : . | >57
- COCC(=O)N1CCC[C@@]2(CCN(C(=O)Nc3cccc(F)c3)C2)C1
 : -2% | >57
- CC(=O)c1c(C)oc2ccc(NS(=O)(=O)c3ccc(O)c(C(=O)O)c3)cc12
 : -2% | >57
- O=c1oc2cc(N=Cc3ccc4c(c3)OCO4)ccc2c2ccccc12
 : 0%[8 µM] | >57
- COc1ccc(CN2CCCC(C(=O)N(C)Cc3ccccc3)C2)cc1OC (configuration not stated)
 : -11% | >57
- Cc1ccc(Cn2c(SCC(=O)Nc3cccc(C)n3)nc3c2c(=O)n(C)c(=O)n3C)cc1
 : 4% | >57
- O=C(OC(C(=O)NCc1cccs1)c1ccccn1)c1cccs1 (configuration not stated)
 : 16% | >57
- CCOC(=O)c1sc(=S)n(CC)c1NC(=O)C1CC1
 : ? | >57
- O=C(NCc1cccs1)C1CCN(c2nccs2)CC1
 : 16% | >57

Of the compounds above, 2 contain a CF3 group.
Order of results – LT uptake inh | SmPrx2 inh
- CS(=O)(=O)N1CCC(C(=O)Nc2ccc(Cl)c(C(F)(F)F)c2)CC1
 : -13% | >57
- O=C1CN=C(Nc2cccc(C(F)(F)F)c2)N1C1CCCC1
 : -5% | >57

Continued.
Order of results – LT uptake inh | SmPrx2 inh
- Nn1cnnc1SCC(=O)Nc1ccc2c(c1)OCCO2
 : -13% | >57
- COC(=O)C/C=C\[C@@H](C)[C@@H](CO)NS(=O)(=O)c1ccc(C)cc1
 : -11%[8 µM] | .
- O=C(CSc1nnc(Cc2cccs2)n1Cc1ccco1)Nc1ccc(Cl)cc1Cl
 : . | >57
- O=C(Cc1ccc(Cl)cc1)NCCN1CCCC1
 : -10% | >57
- CCc1nnc(NC(=O)C2CC(=O)N(c3ccc(C)cc3)C2)s1 (configuration not stated)
 : -4% | >57
- c1ccc2c(c1)CCN(c1ncnc3nc[nH]c13)C2
 : ? | >57
- O=C(Nc1nnc(CCc2ccccc2)s1)c1cccs1
 : -1% | >57
- O=C(N1CCCCCC1)N1CCN(C(=O)N2CCCCC2)CC1
 : -1% | >57
- N#CC1=C(O)C(c2ccccc2)n2c1nc(=O)c1ccccc12 (configuration not stated)
 : -2% | >57
- N#C/C(=C\c1ccc[nH]1)S(=O)(=O)c1ccccc1
 : 0% | >57
- Cc1sc(NC(=O)CCCC(=O)O)c(C#N)c1C
 : 13% | .
- O=C(COC(=O)c1cccc(S(=O)(=O)N2CCc3ccccc32)c1)NC1CCS(=O)(=O)C1 (configuration not stated)
 : -8% | >57
- CCOc1cc(C2C(C(=O)OC)=CN(C3CCCC3)C=C2C(=O)OC)cc(Br)c1O
 : 8% | >57
- O=C(OCC(=O)N1CCN(C(=O)c2ccco2)CC1)c1ccccc1C(=O)c1ccc(Cl)cc1
 : -8% | >57
- COc1cc(OC)c(C(=O)CCCCN2CCC3(CC2)NC(=O)NC3=O)cc1NS(=O)(=O)c1ccc(C(F)(F)F)cc1
 : ? | >57
- Cc1noc(C)c1COc1ccc(C(=O)OCC(=O)c2ccc3c(c2)OCCO3)cc1
 : -4% | >57
- CCOC(=O)N1CCC(NC(=O)C2CCN(C(=O)N3CCOc4ccccc43)CC2)CC1
 : 7% | >57
- Cc1c(C(=O)Nc2ccncc2)sc2nc(-c3ccccc3)cn12
 : -17% | >57
- CCOC(=O)C1=C(C)OC(N)=C(C#N)C1c1cc2c(cc1Br)OCO2 (configuration not stated)
 : 12% | >57
- Cc1cc(NC(=O)c2noc3c2CCCC3)nn1Cc1ccc(Cl)cc1
 : -26% | >57

Next section
Order of results – LT uptake inh | SmPrx2 inh
- CCOC(=O)C1SC2(C(F)F)CC1(O)c1c(c(OC)c3occc3c1OC)O2 (configuration not stated)
 : ? | >57
- CCOC(=O)Cc1csc(NC(=O)c2ccoc2C)n1
 : -5% | >57
- CCOC(=O)CSc1nnc(CNC(=O)Cc2ccccc2)n1-c1ccccc1OC
 : 4% | >57
- CC1(C)CC(=O)C2=C(C1)N(CCN1CCOCC1)C1=C(C(=O)CC(C)(C)C1)C2c1cccc(Cl)c1
 : ? | >57
- COCC(=O)NCCc1nc(-c2ccccc2)cs1
 : 9% | >57
- Cc1ccc(S(=O)(=O)NCC(=O)OCC(=O)N2CCc3ccccc32)cc1
 : 4% | >57
- O=c1[nH]c2ccccc2n1CCCSc1cnc2ccccc2n1
 : 13% | >57
- CC(NC(=O)CSc1ncnc2nc[nH]c12)c1ccccc1 (configuration not stated)
 : 5% | .
- O=C1CC(C(=O)NCc2ccccc2)C2(CCCC2)O1 (configuration not stated)
 : -16% | >57
- COc1ccc(N=C(N(C)C)P(=O)(N(C)C)N(C)C)cc1
 : ? | >57
- Cc1ccc(CN2C(=O)CCC2C(=O)NCCCN2CCC(C)CC2)cc1 (configuration not stated)
 : -7% | >57
- CCOC(=O)Nc1ccc2c(c1)nc(CN1CCOCC1)n2C
 : -10% | >57
- O=C(O)Cc1[nH]cnc1C(=O)O
 : 2%[8 µM] | >57
- COC(=O)c1cc(NC(=O)c2c(Cl)nc3sccn23)cc(C(=O)OC)c1
 : 8% | >57
- Cc1ccc(S(=O)(=O)Nc2nncs2)cc1
 : -2% | >57
- CC(C)(C)C(=O)/C=C(N)/C=C/c1ccccc1
 : -22% | .
- O=C(Nc1cc(N2CCOCC2)ncn1)Nc1cccc2ccccc12
 : -8% | >57
- CCC1CCCCN1C(=O)Nc1ccc(F)cc1 (configuration not stated)
 : 4% | >57
- O=C(O)c1ccccc1-c1ccc(/C=c2\sc3nc4cc(Br)cnc4n3c2=O)o1
 : -14% | .
- CCCc1nc(N)c(C#N)c(-c2ccco2)c1CC
 : -19% | >57

In the list so far, these have a furan ring, fused or not.
Order of results – LT uptake inh | SmPrx2 inh
- Cc1c(C(=O)N2CCCC2)oc2c1-c1[nH]ncc1CC2
 : 6% | >57
- O=C(NC1CCCCC1)c1ccc(S(=O)(=O)NCc2ccco2)cc1
 : -4% | >57
- Cc1cccc2[nH]c(-c3ccc(NC(=O)c4ccco4)cc3)nc12
 : ? | >57
- Cc1noc(/C=C/c2ccco2)c1S(=O)(=O)N1CCC(C(=O)N2CCc3ccccc3C2)CC1
 : ? | >57
- COc1ccc2cc3c(N)c(C(=O)NCc4ccco4)sc3nc2c1
 : 2% | >57
- COc1cccc(-c2nn(C)c3sc(C(=O)NCc4ccc(C)o4)cc23)c1
 : ? | >57
- Cc1nonc1NC(=O)CSc1nnc(-c2ccoc2C)n1CC(C)C
 : ? | >57
- CC(=O)c1c(C)oc2ccc(NS(=O)(=O)c3ccc(O)c(C(=O)O)c3)cc12
 : -2% | >57
- O=C(CSc1nnc(Cc2cccs2)n1Cc1ccco1)Nc1ccc(Cl)cc1Cl
 : . | >57
- O=C(OCC(=O)N1CCN(C(=O)c2ccco2)CC1)c1ccccc1C(=O)c1ccc(Cl)cc1
 : -8% | >57
- CCOC(=O)C1SC2(C(F)F)CC1(O)c1c(c(OC)c3occc3c1OC)O2 (configuration not stated)
 : ? | >57
- CCOC(=O)Cc1csc(NC(=O)c2ccoc2C)n1
 : -5% | >57
- O=C(O)c1ccccc1-c1ccc(/C=c2\sc3nc4cc(Br)cnc4n3c2=O)o1
 : -14% | .
- CCCc1nc(N)c(C#N)c(-c2ccco2)c1CC
 : -19% | >57

Compound activity (PubChem BioAssay)
